Measles inh = inhibitors of measles virus growth in cells, primary screen, measles RdRp inhibitor project, cell-based, single point, HTS. z-score (test concentration not listed). 33,000 tested, 0.1% active. infected Vero cells, GFP fluorescence, 64 h; stronger effect = lower value. AID 745, 2007;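 active = z-score under -3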;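 also: score is relative to mean and SD of the compound wells of a plate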
The depositor's hits bear a star. An excerpt; rates above refer to the full screens.

SMILES | Measles inh
O=C(CC1Sc2ccccc2NC1=O)Nc1cccc(C(=O)O)c1 (configuration not stated) | -0.16
COc1ccc(C2CC(=O)C3=C(C2)Nc2ccccc2NC3c2cc3c(cc2[N+](=O)[O-])OCO3)cc1 (configuration not stated) | 0.26
CC(C)(C)C1CCC2(CC1)SCC(=O)N2c1cccc(Cl)c1 (configuration not stated) | -0.78
O=C1c2ccc(Oc3ccc4c(c3)C(=O)N(c3nccs3)C4=O)cc2C(=O)N1c1nccs1 | -0.09
CCOC(=O)c1ccc(NC(=O)CSc2nc(C(F)(F)F)cc(=O)[nH]2)cc1 | -0.59
COc1ccc(C(=O)CC2OC(=O)c3c2ccc(OC)c3OC)cc1 (configuration not stated) | 0.31
Cc1ccc(S(=O)(=O)Nc2ccccc2CNc2cccc(C)c2C)cc1 | -0.15
Cc1c(Cc2ccccc2)c(NCCCO)n2c(nc3ccccc32)c1C#N | -0.97
CCOc1cc2[nH]c(=O)n(Cc3ccc(C(=O)NC4CCCCC4)cc3)c(=O)c2cc1OCC | -1.3
Cc1ccc(OCCSc2nc3ccccc3n2CCO)c(C(C)C)c1 | -0.83
CC(=O)Oc1ccc2nc(-c3ccc4c(c3)C(=O)N(CC(C)C)C4=O)oc(=O)c2c1 | -0.25
CC1(C)CC(CCNC(=O)c2ccco2)CC(C)(C)N1 | 0.46
CC(NC(=O)CN1C(=O)COc2ccccc21)c1ccccc1 (configuration not stated) | -0.9
COC(=O)C(NC(=O)C(c1ccccc1)c1ccccc1)C12CC3CC(CC(C3)C1)C2 (configuration not stated) | 2.3
O=S(=O)(c1cccs1)N1CCOCC1 | -0.13
O=C(NCCc1ccccc1)c1cccn2c(=O)c3sccc3nc12 | 1.9
CCOc1cc2c(cc1OCC)C(C(=O)O)C(c1ccc(OC)c(Br)c1)N(C)C2=O (configuration not stated) | -1
CCOC(=O)c1c(-c2ccc(Br)cc2)csc1NC(=O)C#Cc1ccccc1 | -2.7
CCCCNC(=O)NC1CCS(=O)(=O)C1 (configuration not stated) | 0.09
O=C(c1ccc(Sc2ccc(Br)cc2)c([N+](=O)[O-])c1)N1CCCCCC1 | -1.7
CC(=O)OCCNc1cc(SC2=NCCS2)c2nonc2c1[N+](=O)[O-] | -0.77
CCOc1cccc2c1OC1(C)C(C(=O)N(C)C)C2NC(=S)N1c1cccc(OC)c1 (configuration not stated) | -0.23
COc1ccc(CNC(=O)c2c(O)c3ccccc3n(C)c2=O)cc1OC | 0.55
CC1CCN(S(=O)(=O)c2ccc3[nH]c(=O)cc(C(=O)NCCC4=CCCCC4)c3c2)CC1 | 2.9
Cc1ccc(C=Cc2nc3ccccc3[nH]2)cc1 | 1.1
O=C(c1cn(CCOc2ccccc2F)c2ccc(Br)cc12)C(F)(F)F | -0.96
COc1ccc(C2(CCN)CCOC(C)(C)C2)cc1 (configuration not stated) | -0.36
O=C1c2cc(S(=O)(=O)N3CCOCC3)cc([N+](=O)[O-])c2-c2c1cc(S(=O)(=O)N1CCOCC1)cc2[N+](=O)[O-] | 0.87
O=C(O)c1ccc2c(c1)C1C=CCC1C(c1ccc(F)cc1)N2 (configuration not stated) | -0.19
COc1cccc(-n2c(=O)c3sccc3n(CC(N)=O)c2=O)c1 | -0.56
O=C(O)c1cc(NC(=O)c2ccc(N3C(=O)c4ccc([N+](=O)[O-])cc4C3=O)cc2)cc(C(=O)O)c1 | -0.15
COc1ccc(CNC(=O)c2cnn3c(C)c(Cc4ccccc4F)c(C)nc23)cc1 | -1.6
COc1cc(NC2OC(=O)c3ccccc32)c(OC)cc1Cl (configuration not stated) | 0.44
Cc1ccc(-n2nc3c(c2NC(=O)c2ccc(OC(C)C)cc2)CSC3)c(C)c1 | -0.13
O=C(NC1CCCC1)C(c1cc2c(cc1[N+](=O)[O-])OCO2)N1CCN(c2ccccc2)CC1 (configuration not stated) | -1.6
O=C(Nc1cccc(C(F)(F)F)c1)c1cc2ccccc2o1 | -1.4
Cc1cc(C)nc(NS(=O)(=O)c2ccc(NC(=O)N3c4ccccc4Sc4ccccc43)cc2)n1 | -0.3
O=C(Nc1ccccc1[N+](=O)[O-])c1cc(S(=O)(=O)NCc2cccnc2)ccc1Cl | 0.57
CCOc1ccc(-c2nn(-c3ccccc3)cc2C2NC(=O)NC(C)=C2C(=O)OC(C)C)cc1 (configuration not stated) | -0.7
Clc1ccc(-c2nc3cnccn3c2Nc2ccccc2)cc1 | -1.2
Cc1cc2ccccc2n1CCNC(=O)c1ccccc1[N+](=O)[O-] | 0.89
O=C1CCc2cc(S(=O)(=O)N3CCc4ccccc43)ccc2N1 | 1.7
COC(=O)c1ccc(NC(=O)CN2CCN(S(=O)(=O)c3cccc([N+](=O)[O-])c3)CC2)cc1 | 1.6
Cn1c(=O)cc(OCC(=O)N2CCN(C(=O)c3ccco3)CC2)c2ccccc21 | -1.2
COC(=O)c1c(NC(=O)c2ccc(S(=O)(=O)N(C)c3ccccc3)cc2)sc2c1CCN(C)C2 | 0.41
CCOC(=O)C1=C(C)NC(=S)NC1c1ccccc1OC (configuration not stated) | 1.4
Cc1cc(Br)ccc1NC(=O)C(Cc1ccccc1)NS(=O)(=O)c1ccc(Br)s1 (configuration not stated) | -0.25
CCN(C(=O)Cc1c(C(=O)O)[nH]c2ccc(Cl)cc12)c1cc(C)ccc1C | -0.62
O=C(Nc1c(C(=O)NCc2ccccc2)cnn1-c1ccccc1)c1ccccc1F | 1.1
Cc1ccc(CN2CC34C=CC(O3)C(C(=O)NC(C)c3ccccc3)C4C2=O)cc1 (configuration not stated) | 0.34
COc1ccc(CN2CC(C(=O)NC3CCCC3)CC2=O)cc1 (configuration not stated) | 1.5
CCSc1ccc(-c2ccc(SCC)cc2)cc1 | -0.03
O=C(O)c1cc2nc(-c3cccs3)cc(C(F)(F)F)n2n1 | -0.95
CC(NC(=O)c1ccc(F)cc1)C(=O)NC1=NCCS1 (configuration not stated) | -0.08
Cc1ccc(C2=CSC3=NCCN23)cc1C | -0.01
COc1cc2c(cc1OC)CN(C(=O)c1ccccc1Br)CC2 | 0.43
COc1ccc(N2CCN(c3ccc(NC(=O)c4ccc(OC)c(OC)c4)cc3C#N)CC2)cc1 | -0.61
Cc1ccc(C2=NN(CC(=O)NCCc3ccccc3)C(=O)CC2)cc1 | -0.31
O=C(O)Cn1cccc([N+](=O)[O-])c1=O | -0.24
CSc1nc2c(c(=O)[nH]1)C(c1ccc(Br)cc1)c1c(nc(SC)[nH]c1=O)O2 | -0.78
Going on with the list:
SMILES | Measles inh
O=C(NCCN1CCCC1)c1cc(=O)[nH]c2ccc(S(=O)(=O)N3CCCC3)cc12 | 0.28
C=CCc1cccc(C=Nc2cc(Br)ccc2O)c1O | -0.07
CCOc1ccc(C(=O)Nc2ccc(NC(=O)c3cccc(Cl)c3)cc2)cc1 | 0.89
CC(=O)Oc1cccc2cccnc12 | -0.4
O=C(CN1CCN(c2ccc(Cl)cc2)CC1)Nc1ccc(OC(F)(F)Cl)cc1 | 0.2
CN(C)CCNC(=O)Cc1c(C(=O)O)[nH]c2ccccc12 | -0.73
O=C(NC1CCCCC1)c1ccc2c(=O)n(Cc3cccc(Br)c3)c(=S)[nH]c2c1 | 1.3
CCN(CC)c1ccc2cc(C(=O)Nc3ccccc3)c(=O)oc2c1 | 2.8
O=C1Nc2ccccc2C(O)(C(=O)NC2CC2)N1c1ccccc1 (configuration not stated) | -0.53
O=C(O)CCCC(=O)Nc1nc(-c2cccc(Br)c2)cs1 | -0.07
CCc1ccc(OCC(=O)Nc2cccc(NC(=O)c3ccco3)c2)cc1 | -0.02
O=C(CCc1nc(-c2ccccc2F)no1)NCc1cccs1 | -0.14
CCCOC(=O)c1cc(-c2ccc(OC)cc2)nc2ccc(Br)cc12 | 0.32
CCOc1cccc(C2CC(c3ccc(OC)cc3)=NC(c3ccc(Cl)cc3)N2)c1O (configuration not stated) | -0.78
C=CCN(CC=C)Cc1c(C)[nH]c2c(C)cccc2c1=O | 0.99
O=C1CC(c2cccc(Br)c2)c2cc3c(cc2N1)OCCO3 (configuration not stated) | 1.9
COC(=O)C1(C(F)(F)F)CC(C)=C(C)CN1S(C)(=O)=O (configuration not stated) | 0.23
CC1=C(C(N)=O)C(c2ccc(F)cc2)n2ncnc2N1 (configuration not stated) | 0.65
COc1ccc(-n2nc3c(c2NC(=O)c2c(OC)cccc2OC)CSC3)cc1 | -0.41
O=C(NCCNC(=O)c1ccccc1)c1ccccc1 | -0.46
Clc1ccc(-c2cn3nc(-c4ccccc4)sc3n2)cc1 | 0.09
COc1cccc(C(=O)Nc2nc3c(s2)C(=O)CC(C)(C)C3)c1 | 2.1
Nc1ccc2nc(-c3ccccc3)[nH]c2c1 | -0.18
CN(C)CCN1C(=O)C(=O)c2ccccc21 | -0.15
Cc1ccc(C)c(NS(=O)(=O)c2ccc(NC(=O)c3ccc(C4SCC(=O)N4Cc4ccccc4)cc3)cc2)c1 (configuration not stated) | -1.3
CC(C)(CC(=O)N1CCCCCC1)CC1=NS(=O)(=O)c2ccccc2N1 | 0.13
O=C(Nc1c2c(nn1-c1ccc(F)cc1)CSC2)c1cc([N+](=O)[O-])ccc1Cl | -0.21
Cc1ccc(-c2nc3ncccn3c2Nc2c(C)cccc2C)cc1 | -0.07
COc1ccc(C2Nc3ccccc3C(=O)N2c2ccc(Cl)cc2)cc1OC (configuration not stated) | -0.2
Cc1ccc(-c2ccccc2)c(Oc2cccc(C#N)c2C#N)c1 | -1.5
COc1ccc(C2C(C(=O)OCc3ccccc3)=C(C)NC3=C2C(=O)CC(C)(C)C3)cc1Br (configuration not stated) | -0.49
CCOc1ccc(-n2ccnc2SCC(=O)Nc2ccccc2C(F)(F)F)cc1 | -1.1
Cc1ccc(C2N(Cc3ccccc3)CCN2Cc2ccccc2)cc1 | -0.2
O=C1OC(Nc2ccccc2F)c2ccccc21 (configuration not stated) | -0.23
Cc1cc(C)c(C#N)c(SCc2ccccn2)n1 | -0.15
CCOC(=O)c1c(C)n(C)c2c1cc(OC(=O)c1cccc(N3C(=O)CCC3=O)c1)c1ccccc12 | 0.35
O=C(NCCNc1c(Cl)cccc1[N+](=O)[O-])c1ccccc1Br | -0.68
O=c1[nH]cc(N2CCCCC2)c(=O)[nH]1 | 0.24
Cc1ccc(-c2[nH]c3ccccc3c2SCCNC(=O)C(C)(C)C)cc1 | 0.65
COc1ccc(C(=O)Nc2cc(OC)nc(OC)n2)cc1 | -0.93
Cc1cc(NC(=O)c2cccc(N3C(=O)CCC3=O)c2)no1 | -0.1
Cc1nonc1N1CCOCC1 | 1.4
CC1CC(C)CN(c2cc(NCCCO)c([N+](=O)[O-])c3nonc23)C1 (configuration not stated) | 1.3
O=C1C2C3C=CC(C2C(=O)N1c1cccc(O)c1)C1C2C(=O)N(c4cccc(O)c4)C(=O)C2C31 (configuration not stated) | 0.65
Cc1cc(N2CCC(C)CC2)nc2ccc(NC(=O)CCC(=O)NC3CCCCC3)cc12 | -1.1

An excerpt from above in order of the Measles inh value, ascending:
SMILES	Measles inh
COc1ccc(C2C(C(=O)OCc3ccccc3)=C(C)NC3=C2C(=O)CC(C)(C)C3)cc1Br (configuration not stated)	-0.49
Cc1ccc(-c2[nH]c3ccccc3c2SCCNC(=O)C(C)(C)C)cc1	0.65
Cc1nonc1N1CCOCC1	1.4

Next entries.
SMILES | Measles inh
CCOC(=O)CSc1nc2ccccc2s1 | 0.11
CN(C)S(=O)(=O)c1cccc2c1C(=O)c1ccccc1C2=O | 0.52
COc1cc2c(cc1OC)C(C(=O)NCCCN1CCC(C)CC1)C1c3ccccc3CCN1C2=O (configuration not stated) | -0.81
O=c1ccc2cc3c(-c4ccccc4)coc3cc2o1 | -0.44
CCN(CC)CCN1C(=O)c2ccccc2NC1c1ccccc1F (configuration not stated) | -1.5
COCCNc1nc2c(c(=O)n(Cc3cccc(Br)c3)c(=O)n2C)n1C | -0.2
Cc1cc(C)c(NC(=O)COc2ccc(Br)cc2)c(C)c1 | -1.3
O=C(Nc1ccccc1Cl)c1ccccc1Nc1nc(-c2ccccc2)cs1 | 0.75
O=C(CSc1nnc(-c2ccc(Cl)s2)o1)N1CCOCC1 | 0.66
CCOc1ccc(-n2c(=O)c3sccc3n(CC(=O)NCCc3ccccc3)c2=O)cc1 | 1.9
COC(=O)C1=C(C)NC(=O)N(C(C)=O)C1c1ccc(F)cc1 (configuration not stated) | -0.53
Cc1ccc(-c2csc(NC(=O)c3ccc(S(=O)(=O)N(C)C)cc3)n2)cc1 | -0.65
CCC(C)NC(=O)C(C)N(c1ccccc1)S(C)(=O)=O (configuration not stated) | -0.69
CC(C)NC(=O)c1cccnc1SCc1ccccc1Cl | 0.87
N#Cc1c2c(c(N3CCN(CCO)CC3)n3c1nc1ccccc13)CCC2 | -0.91
O=C(c1cccc(N2C(=O)C3C4C=CC(C4)C3C2=O)c1)N1CCCc2ccccc21 (configuration not stated) | 2.2
CCCc1c(C)c2cc3c(C)coc3cc2oc1=O | -0.09
O=c1c2cc3c(cc2[nH]c(=S)n1C1CCCCCC1)OCO3 | -0.38

Exported tab-delimited: part of the list above.
Compound	Measles inh
CCOC(=O)CSc1nc2ccccc2s1	0.11
CN(C)S(=O)(=O)c1cccc2c1C(=O)c1ccccc1C2=O	0.52
COc1cc2c(cc1OC)C(C(=O)NCCCN1CCC(C)CC1)C1c3ccccc3CCN1C2=O (configuration not stated)	-0.81
O=c1ccc2cc3c(-c4ccccc4)coc3cc2o1	-0.44
CCN(CC)CCN1C(=O)c2ccccc2NC1c1ccccc1F (configuration not stated)	-1.5
COCCNc1nc2c(c(=O)n(Cc3cccc(Br)c3)c(=O)n2C)n1C	-0.2
Cc1cc(C)c(NC(=O)COc2ccc(Br)cc2)c(C)c1	-1.3
O=C(Nc1ccccc1Cl)c1ccccc1Nc1nc(-c2ccccc2)cs1	0.75
O=C(CSc1nnc(-c2ccc(Cl)s2)o1)N1CCOCC1	0.66
CCOc1ccc(-n2c(=O)c3sccc3n(CC(=O)NCCc3ccccc3)c2=O)cc1	1.9
COC(=O)C1=C(C)NC(=O)N(C(C)=O)C1c1ccc(F)cc1 (configuration not stated)	-0.53
Cc1ccc(-c2csc(NC(=O)c3ccc(S(=O)(=O)N(C)C)cc3)n2)cc1	-0.65
CCC(C)NC(=O)C(C)N(c1ccccc1)S(C)(=O)=O (configuration not stated)	-0.69
CC(C)NC(=O)c1cccnc1SCc1ccccc1Cl	0.87
N#Cc1c2c(c(N3CCN(CCO)CC3)n3c1nc1ccccc13)CCC2	-0.91
